Screens deposited in PubChem by National Center for Advancing Translational Sciences (NCATS).
CtBP-E1A blk: qHTS Assay for Inhibitors of the CtBP/E1A Interaction; activity change, % (no concentration beside the values); CtBP / adenovirus E1A interaction (AlphaScreen); AlphaScreen GST-E1A/His-CtBP binding, 1536-well; stronger effect = lower value; control for the full effect not named in the record; 0.49% of 340,000 active; in the data active means activity change below about -65%; inconclusive means about -30% to -65%; inactive means above about -30%; also: % is scaled to controls: 0 for no effect and ±100 for the full control effect; compound concentration not given in the record
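Protein mix (5X: 125 nM each GST-E1A, His-CtBP) was incubated with pinned compound 2 h at 37 deg C in dark, in 50 mM Tris pH 8.0 buffer with 300 mM NaCl. Glutathione donor and nickel acceptor beads followed; AlphaScreen signal read after 1 h.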
Six1-Eya2 inh: qHTS Assay for Inhibitors of the Six1/Eya2 Interaction. Homeobox protein SIX1 (Homo sapiens) + Protein phosphatase EYA2 (Homo sapiens), …. AID 651725, 2012. activity change, % (no concentration beside the values). 0.56% of 360,000 active. AlphaScreen GST-Six1/His-Eya2 binding, biochemical; stronger effect = lower value; control for the full effect not named in the record; in the data active = activity change below about -65%; inconclusive = about -30% to -65%; inactive = above about -30%; also: % is scaled to controls: 0 for no effect and ±100 for the full control effect; compound concentration not given in the record
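Six1/Eya2 binding was read as AlphaScreen signal after compounds were pinned into GST-Six1 plus His-tagged Eya2 (5X stock 250/500 nM) in pH 8.0 Tris/NaCl/TCEP buffer, beads added, then incubated 1 h, 37 C, dark.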
D2 agonist: Beta-Arrestin HTS for Positive Allosteric Modulators of the Human D2 Dopamine Receptor: Agonists; D(2) dopamine receptor (Homo sapiens), P14416; DiscoveRx PathHunter D2 beta-arrestin, luminescence, 90 min; 100% = 57 uM dopamine signal; AID 624465, 2012; 0.084% of 360,000 active; activation, % (no concentration beside the values); in the data active = activation above about 40%; inconclusive = about 15% to 40%; inactive = below about 15%; also: compound concentration not given in the record; the text of the record calls up to 30% inactive
Target sequence (P14416 whole entry, looked up): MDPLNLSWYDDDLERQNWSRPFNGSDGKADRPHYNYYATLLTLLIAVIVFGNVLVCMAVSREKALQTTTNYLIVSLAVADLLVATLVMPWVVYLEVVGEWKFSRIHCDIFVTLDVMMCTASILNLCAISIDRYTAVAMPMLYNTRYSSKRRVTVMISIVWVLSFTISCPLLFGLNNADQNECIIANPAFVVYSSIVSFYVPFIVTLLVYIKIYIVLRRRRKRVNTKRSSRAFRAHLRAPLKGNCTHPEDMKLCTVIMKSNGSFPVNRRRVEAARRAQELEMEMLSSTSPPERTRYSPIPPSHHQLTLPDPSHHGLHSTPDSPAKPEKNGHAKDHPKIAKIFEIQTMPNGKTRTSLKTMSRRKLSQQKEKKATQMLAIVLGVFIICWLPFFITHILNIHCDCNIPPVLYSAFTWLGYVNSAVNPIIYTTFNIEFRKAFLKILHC
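DiscoveRx PathHunter D2 beta-arrestin cells (2,100/well) attached overnight, then compound-stimulated 90 min at 37 C in HBSS/10 mM HEPES/0.1% Tween-20 buffer; beta-galactosidase complementation read by luminescence after 1 h at ambient temperature. Dopamine 57 uM final (EC100) as control.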
PINK1 expr mod: A Quantitative High throughput Screen to Identify Chemical Modulators of PINK1 Expression; PINK1 immunofluorescence, high-content cytometry, 24 h; 0.2% of 410,000 active; AID 624263, 2012; Potency, µM (doses to about 76.6 µM), for the others: at the top dose activation (PINK1 increase), most hits filed as activators; active = well fitted activation curve with a large enough effect; inconclusive = small, poorly fitted or top-dose-only effect; inactive = flat fitted curve, though single readings scatter; cell line not stated here;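 also: potency is read from the fitted curve at half-maximal effect; % of control where 0% means no effect; nearly all actives have a fitted effect of over 65% in size; a mitochondrial uncoupler was the plate control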
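Cells are seeded, rested 12 hours, then given compound at five concentrations or DMSO for 24 hours. After fixation, blocking and antibody staining, PINK1 amount and mitochondrial localization are scored; CCCP serves as control.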
D2 potentiator: Beta-Arrestin HTS for Positive Allosteric Modulators of the Human D2 Dopamine Receptor: Potentiators; DiscoveRx D2 beta-arrestin cells, luminescence, 90 min; 100% = 57 uM dopamine signal; 0.23% of 360,000 active; potentiation, % (no concentration beside the values); D(2) dopamine receptor (Homo sapiens), P14416; active = potentiation of 50% or more; inconclusive = 30% to 50%; inactive = 30% or less;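 also: compound concentration not given in the record; tested on top of an EC20 dose of dopamine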
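PathHunter D2 cells, attached overnight at 37 deg C, received compound in DMSO plus dopamine at EC20 (50 nM final) for 90 min at 37 deg C. Beta-arrestin recruitment was read as luminescence after 1 h with detection reagent at ambient temperature.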
TRPML1 ag: qHTS for Agonists of the Human Mucolipin Transient Receptor Potential 1 (TRPML1); Mucolipin-1 (Homo sapiens), Q9GZU1; TRPML1-expressing cells, Ca2+ dye fluorescence, FDSS; host cell line not named in the record; reference of the full effect not given here; activation, % (test concentration not listed); 0.12% of 410,000 active; in the data active = activation above about 50%; inconclusive = about 30% to 50%; inactive = below about 30%; also: 0% is about no effect; the text of the record puts the active cut at 80%
Target sequence (Q9GZU1 whole entry, looked up): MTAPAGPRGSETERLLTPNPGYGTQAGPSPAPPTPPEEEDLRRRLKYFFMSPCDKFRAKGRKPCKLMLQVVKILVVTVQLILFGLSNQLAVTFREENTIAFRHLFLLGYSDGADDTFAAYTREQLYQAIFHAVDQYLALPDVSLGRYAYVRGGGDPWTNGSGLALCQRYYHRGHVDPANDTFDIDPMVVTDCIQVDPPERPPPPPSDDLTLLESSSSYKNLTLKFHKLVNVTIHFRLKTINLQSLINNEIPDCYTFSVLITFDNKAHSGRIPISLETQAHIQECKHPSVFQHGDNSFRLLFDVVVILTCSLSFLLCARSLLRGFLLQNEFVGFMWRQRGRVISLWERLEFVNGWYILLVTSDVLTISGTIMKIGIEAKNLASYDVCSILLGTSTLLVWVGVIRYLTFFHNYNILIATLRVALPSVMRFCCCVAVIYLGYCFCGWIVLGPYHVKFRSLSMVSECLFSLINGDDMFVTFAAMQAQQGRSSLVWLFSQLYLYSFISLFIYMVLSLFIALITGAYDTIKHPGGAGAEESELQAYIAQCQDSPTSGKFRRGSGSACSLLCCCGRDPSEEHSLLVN
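Calcium fluorescence on an FDSS kinetic reader gave the read-out. Tet-induced TRPML1-DL cells were plated overnight, dye-loaded (Ca8 with quencher, 45-90 min, room temperature, dark), then read 110 s after compound addition, and again 110 s after 4uM final 54-4 (EC80).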
The depositor's hits bear a star; [ ] = remark or other dose.

`CC(C)c1ccc(/C=C/C(=O)NCCCN2CCOCC2)cc1` gave CtBP-E1A blk 1, Six1-Eya2 inh 17, D2 agonist -4.5, PINK1 expr mod 0.4%, D2 potentiator -7 and TRPML1 ag 0.5.
`Fc1ccc(-c2nnc(CSc3nnc(-c4cccs4)o3)o2)cc1` gave CtBP-E1A blk -8, Six1-Eya2 inh -4, D2 agonist -2.7, PINK1 expr mod 0.7%, D2 potentiator -4 and TRPML1 ag 2.7.
`Cc1cccn2c(=O)c(/C=C(\C#N)C(=O)NCc3ccco3)c(N3CCCCC3)nc12` gave CtBP-E1A blk -5, Six1-Eya2 inh 2, D2 agonist -3.3, PINK1 expr mod -0.8%, D2 potentiator 1 and TRPML1 ag 3.1.
For CCC1(CC)NC(=O)N(CC(=O)OCC(=O)NC(=O)c2ccc(Cl)cc2)C1=O the results were CtBP-E1A blk 3, Six1-Eya2 inh -2, D2 agonist 2.0, PINK1 expr mod 0.2%, D2 potentiator 0 and TRPML1 ag -0.5.
Screening CCN1CCN(C(=O)C2CC(=O)N(c3ccc(Cl)cc3)C2)CC1 (configuration not stated) returned CtBP-E1A blk 0, Six1-Eya2 inh 6, D2 agonist 2.3, PINK1 expr mod -1.2%, D2 potentiator -3 and TRPML1 ag 1.5.
For Cc1cc(C)nc(SCc2nnc(SCC(=O)Nc3nccs3)n2Cc2ccco2)n1 the results were CtBP-E1A blk 0, Six1-Eya2 inh -4, D2 agonist -3.4, PINK1 expr mod 0.8%, D2 potentiator -6 and TRPML1 ag 0.7.
`CCOc1cc(C(=O)NC(=S)Nc2nc(C)cc(C)n2)cc(OCC)c1OCC` gave CtBP-E1A blk 3, Six1-Eya2 inh -1, D2 agonist -4.6, PINK1 expr mod -0.1%, D2 potentiator -6 and TRPML1 ag 1.2.
CCOc1ccccc1NC(=O)/C(C#N)=C/c1cccnc1 was read as CtBP-E1A blk -1, Six1-Eya2 inh 1, D2 agonist -4.7, PINK1 expr mod 1.5%, D2 potentiator 7 and TRPML1 ag 0.5.
`COc1ccc(Nc2ccc3c(c2)=NC2(CCCCC2)[N+]=3[O-])cc1` gave CtBP-E1A blk -1, Six1-Eya2 inh -24, D2 agonist -2.7, PINK1 expr mod -1.7%, D2 potentiator -14 and TRPML1 ag 3.6.
CC(OC(=O)Cn1c(C(F)(F)F)nc2ccccc21)C(=O)N1CCCc2ccccc21 (configuration not stated) was read as CtBP-E1A blk 14, Six1-Eya2 inh 9, D2 agonist -4.2, PINK1 expr mod 7.3%, D2 potentiator 1 and TRPML1 ag -0.7.
CCOc1ccc(CN(C)CC(O)COC(c2ccc(OC)cc2)c2ccc(OC)cc2)cc1 (configuration not stated) was read as CtBP-E1A blk -10, Six1-Eya2 inh -8, D2 agonist 3.6, PINK1 expr mod -3.5%, D2 potentiator -10 and TRPML1 ag 1.0.
Screening CCOC(=O)c1c(N)n(CCOC(=O)c2cccs2)c2nc3ccccc3nc12 returned CtBP-E1A blk -14, Six1-Eya2 inh -14, D2 agonist -2.7, PINK1 expr mod 3.1%[38.3 µM], D2 potentiator -17 and TRPML1 ag -0.4.
`CCOc1ccccc1N1CCN(C(=O)CNC(=O)c2ccccc2F)CC1` gave CtBP-E1A blk 2, Six1-Eya2 inh 5, D2 agonist -3.7, PINK1 expr mod -1.7%, D2 potentiator -5 and TRPML1 ag -0.1.
`CCOC(=O)N1CCC(N2CCN(S(=O)(=O)c3ccc([N+](=O)[O-])cc3)CC2)CC1` gave CtBP-E1A blk 6, Six1-Eya2 inh 1, D2 agonist 2.8, PINK1 expr mod 0.3%, D2 potentiator 12 and TRPML1 ag 0.1.
`COc1cccc(-c2nnn(C/C(N)=N/O)n2)c1` gave CtBP-E1A blk 6, Six1-Eya2 inh 20, D2 agonist -2.2, PINK1 expr mod 1.0%, D2 potentiator -2 and TRPML1 ag 1.3.
For COc1ccc(Nc2cc(Nc3cccc(OC)c3)ncn2)cc1 the results were CtBP-E1A blk -10, Six1-Eya2 inh 2, D2 agonist -3.6, PINK1 expr mod 0.8%, D2 potentiator -3 and TRPML1 ag -1.4.
`Cc1cc(C)c(S(=O)(=O)N2CCC(C(N)=O)CC2)cc1C` gave CtBP-E1A blk 8, Six1-Eya2 inh -1, D2 agonist 2.3, D2 potentiator 1 and TRPML1 ag -0.3.
`COc1ccc(CNC(=O)CN2c3ccccc3S(=O)(=O)c3ccccc32)cc1` gave CtBP-E1A blk 24, Six1-Eya2 inh 9, D2 agonist 0.6, PINK1 expr mod 0.5%, D2 potentiator -10 and TRPML1 ag 0.8.
Cc1ccc(S(=O)(=O)N2CCOCC2)cc1C(=O)NCCCn1ccnc1 was read as CtBP-E1A blk -5, Six1-Eya2 inh 9, D2 agonist 1.0, PINK1 expr mod 1.1%, D2 potentiator 0 and TRPML1 ag 0.2.
`COC(C[C@@H]1O[C@@H]1[C@@H](O)COCc1ccccc1)OC` gave Six1-Eya2 inh -4, D2 agonist 1.2, PINK1 expr mod 4.5%, D2 potentiator -6 and TRPML1 ag 0.2.
For Cc1cccc(OCc2nnc(SCC(=O)NC3CCCCC3)n2C)c1 the results were CtBP-E1A blk 0, Six1-Eya2 inh 17, D2 agonist 3.5, PINK1 expr mod 0.9%, D2 potentiator -4 and TRPML1 ag 0.0.
O=C(NCc1ccco1)c1cccc(S(=O)(=O)N2CCOCC2)c1 was read as CtBP-E1A blk 6, Six1-Eya2 inh -1, D2 agonist 2.5, PINK1 expr mod inconclusive, D2 potentiator -2 and TRPML1 ag -0.4.
CSc1nc(Cl)c(Cc2ccc(OC(C)C)cc2)c(N(C)C)n1 was read as CtBP-E1A blk 32, Six1-Eya2 inh 27, D2 agonist 3.4, PINK1 expr mod 1.5%, D2 potentiator -3 and TRPML1 ag 0.8.
`COc1cccc(C(=O)Nc2c[nH]c(=O)[nH]c2=O)c1` gave CtBP-E1A blk 8, Six1-Eya2 inh 6, D2 agonist -0.6, PINK1 expr mod -0.3%, D2 potentiator 2 and TRPML1 ag 0.1.
`CCCCc1nc2ccccc2c(N)c1CCC` (tested in a mixture with another compound) gave CtBP-E1A blk 4, Six1-Eya2 inh 0, D2 agonist -0.2, PINK1 expr mod inconclusive, D2 potentiator -15 and TRPML1 ag 2.1.
COc1cc(C)c(C(C)C)cc1S(=O)(=O)NCCCn1ccnc1 was read as CtBP-E1A blk 3, Six1-Eya2 inh 0, D2 agonist -0.7, PINK1 expr mod -0.1%, D2 potentiator -12 and TRPML1 ag 0.8.
Screening Cn1nc(C(=O)NC2=NCCS2)ccc1=O returned CtBP-E1A blk 5, Six1-Eya2 inh 7, D2 agonist 0.2, PINK1 expr mod 0.0%, D2 potentiator 2 and TRPML1 ag -0.4.
Screening O=C(CSc1ccsc1[N+](=O)[O-])N1CCCCC1 returned CtBP-E1A blk 5, Six1-Eya2 inh 0, D2 agonist -4.5, PINK1 expr mod 1.3%, D2 potentiator -4 and TRPML1 ag -0.5.
Screening Cc1cc(NC(=O)CSc2ncnc3sc(C)c(C)c23)no1 returned CtBP-E1A blk 15, Six1-Eya2 inh 2, D2 agonist 0.0, PINK1 expr mod 0.8%, D2 potentiator -5 and TRPML1 ag -1.1.
For CC12CCCCC1c1ccccc1C(=NCC(=O)O)N2 (configuration not stated) the results were CtBP-E1A blk -9, Six1-Eya2 inh -1, D2 agonist 0.6, D2 potentiator -8 and TRPML1 ag 1.0.
For Cc1ccc(/C=C2\SC(=S)N(CCC(=O)NNC(=O)c3cccnc3)C2=O)cc1 the results were CtBP-E1A blk 2, Six1-Eya2 inh -13, D2 agonist -3.3, PINK1 expr mod -0.4%, D2 potentiator -4 and TRPML1 ag -0.5.
Screening CCC1CCCCN1CCCNC(=O)CS(=O)(=O)Cc1nc(-c2cccc(OC)c2)oc1C (configuration not stated) returned CtBP-E1A blk -15, Six1-Eya2 inh 9, D2 agonist -4.8, PINK1 expr mod 1.8%, D2 potentiator -27 and TRPML1 ag 0.7.
Cc1cccc(NC(=O)CSc2nnc(CNC(=O)c3cccs3)o2)c1C was read as CtBP-E1A blk 1, Six1-Eya2 inh 12, D2 agonist -3.0, PINK1 expr mod -1.4%, D2 potentiator -13 and TRPML1 ag 2.3.
For Cc1cc(NC(=O)CN2C(=O)NC(c3ccccc3)(c3ccc(C)c(C)c3)C2=O)no1 (configuration not stated) the results were Six1-Eya2 inh -7, D2 agonist -4.4, PINK1 expr mod -0.8%, D2 potentiator -7 and TRPML1 ag 0.8.
`Nc1ccc(-c2cc(-c3ccc(N)cc3)nc(-c3ccccc3)n2)cc1` gave CtBP-E1A blk 0, Six1-Eya2 inh 24, D2 agonist -3.2, PINK1 expr mod -1.0%, D2 potentiator -16 and TRPML1 ag 0.1.
`COc1ccccc1CNC(=O)C(=O)c1cn(CC(=O)N2CCCCC2)c2ccccc12` gave CtBP-E1A blk 1, Six1-Eya2 inh -5, D2 agonist -1.5, PINK1 expr mod 1.6%, D2 potentiator -9 and TRPML1 ag 0.0.
Screening Cc1cccc(C)c1OCC1CNC(=O)O1 (configuration not stated) returned CtBP-E1A blk 3, Six1-Eya2 inh 12, D2 agonist 0.1, PINK1 expr mod -1.1%, D2 potentiator 0 and TRPML1 ag 0.1.

By substructure, those above with a thiophene ring, fused or not
`Fc1ccc(-c2nnc(CSc3nnc(-c4cccs4)o3)o2)cc1` gave CtBP-E1A blk -8, Six1-Eya2 inh -4, D2 agonist -2.7, PINK1 expr mod 0.7%, D2 potentiator -4 and TRPML1 ag 2.7.
Screening CCOC(=O)c1c(N)n(CCOC(=O)c2cccs2)c2nc3ccccc3nc12 returned CtBP-E1A blk -14, Six1-Eya2 inh -14, D2 agonist -2.7, PINK1 expr mod 3.1%[38.3 µM], D2 potentiator -17 and TRPML1 ag -0.4.
Screening O=C(CSc1ccsc1[N+](=O)[O-])N1CCCCC1 returned CtBP-E1A blk 5, Six1-Eya2 inh 0, D2 agonist -4.5, PINK1 expr mod 1.3%, D2 potentiator -4 and TRPML1 ag -0.5.
Screening Cc1cc(NC(=O)CSc2ncnc3sc(C)c(C)c23)no1 returned CtBP-E1A blk 15, Six1-Eya2 inh 2, D2 agonist 0.0, PINK1 expr mod 0.8%, D2 potentiator -5 and TRPML1 ag -1.1.
Cc1cccc(NC(=O)CSc2nnc(CNC(=O)c3cccs3)o2)c1C was read as CtBP-E1A blk 1, Six1-Eya2 inh 12, D2 agonist -3.0, PINK1 expr mod -1.4%, D2 potentiator -13 and TRPML1 ag 2.3.
